Screening data: PubChem, several laboratories
RanGTP-Imp inh = inhibitors of RanGTP-importin-beta interaction, primary screen, biochemical, FRET, CFP-Ran, YFP-importin-beta, homogeneous; inhibition, % (test concentration not listed); 300,000 tested, 1.1% active; cell-free CFP-Ran/YFP-importin-beta FRET ratio;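 active means most replicates above 15%; inconclusive means exactly half above 15%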;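 further: 0% = DMSO wells and 100% = Ran loaded with GDP instead of GTP; wells of about 40 µL received 100 nL stock; the first replicate is given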
A1 inh = inhibitors of the anti-apoptotic protein A1, read as caspase activation | MEF A1-2A-BIM cells, Caspase-Glo 3/7 luminescence, 3 h; percent of clofoctol response, vehicle zero | caspase activation, % (concentration not given with the values) | 330,000 tested, 0.066% active | AID 2462;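 active means over half of replicate activation scores above 10%, or exactly half above 10 with the replicate mean above 10; inconclusive means replicate mean below 10 yet half the replicates above 10; inactive means over half of replicates below 10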;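 further: wells of about 30 µL received 50 nL stock; many hits fall short of the cut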
LANA-H2B inh = blocks KSHV LANA binding to histone H2A/H2B. inhibition, % (no concentration beside the values). AID 2629. 320,000 tested, 0.6% active. cell-free LANA-H2A/H2B peptide, fluorescence polarization. Q9QR71; in the data active means inhibition mostly above about 10%, no sharp cut-off; inactive means mostly below about 6.7%;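 further: stock transfer was 7.5 nL into about 10 µL; 0% = median of vehicle wells and 100% = median of positive control wells; one replicate is shown; the record names a cut of 25% in any replicate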
Target sequence (Q9QR71 whole entry, looked up): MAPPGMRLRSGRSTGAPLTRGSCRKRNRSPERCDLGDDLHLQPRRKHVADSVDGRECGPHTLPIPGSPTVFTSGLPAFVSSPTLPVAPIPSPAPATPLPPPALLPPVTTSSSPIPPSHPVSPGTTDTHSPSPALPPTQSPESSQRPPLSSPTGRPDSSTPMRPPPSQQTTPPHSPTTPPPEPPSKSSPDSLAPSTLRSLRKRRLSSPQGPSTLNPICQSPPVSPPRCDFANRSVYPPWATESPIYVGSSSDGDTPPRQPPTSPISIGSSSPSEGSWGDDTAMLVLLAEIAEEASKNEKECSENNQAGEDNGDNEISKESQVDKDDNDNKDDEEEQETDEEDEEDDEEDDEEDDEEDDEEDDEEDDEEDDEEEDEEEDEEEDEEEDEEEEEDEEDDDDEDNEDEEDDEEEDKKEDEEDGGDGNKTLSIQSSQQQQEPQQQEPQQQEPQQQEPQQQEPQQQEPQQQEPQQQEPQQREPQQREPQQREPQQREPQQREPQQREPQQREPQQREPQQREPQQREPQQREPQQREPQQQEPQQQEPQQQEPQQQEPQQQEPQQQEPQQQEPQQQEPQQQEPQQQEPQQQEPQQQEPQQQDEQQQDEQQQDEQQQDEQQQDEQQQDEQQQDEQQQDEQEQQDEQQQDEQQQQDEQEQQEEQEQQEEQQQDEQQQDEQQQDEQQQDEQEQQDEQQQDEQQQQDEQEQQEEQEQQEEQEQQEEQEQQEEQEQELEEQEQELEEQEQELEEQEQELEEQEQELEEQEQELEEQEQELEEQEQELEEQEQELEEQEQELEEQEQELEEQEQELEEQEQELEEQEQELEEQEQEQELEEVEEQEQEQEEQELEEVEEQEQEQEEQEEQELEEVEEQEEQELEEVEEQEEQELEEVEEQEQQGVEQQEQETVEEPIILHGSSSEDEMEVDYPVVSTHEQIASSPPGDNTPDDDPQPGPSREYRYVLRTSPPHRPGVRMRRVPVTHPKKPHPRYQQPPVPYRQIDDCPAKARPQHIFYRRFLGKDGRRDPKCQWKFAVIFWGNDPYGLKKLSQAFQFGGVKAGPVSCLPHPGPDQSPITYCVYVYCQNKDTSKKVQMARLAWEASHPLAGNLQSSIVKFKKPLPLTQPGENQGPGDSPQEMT
Beta apoptosis = beta cell apoptosis inhibition; INS-1E cytokine-induced death, ATP luminescence, 48 h; percent of positive-control rescue, neutral wells zero; protection from apoptosis, % (no concentration beside the values); 300,000 tested, 0.8% active; AID 435005;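 active means all replicates at 75% or more, or half of them and the mean; inconclusive means half reach 75% but not the mean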;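 further: 0% = cytokine-treated negative control wells and 100% = positive control rescue; higher means more ATP so stronger rescue from cytokine killing; wells of about 40 µL received 100 nL stock; the first replicate is given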
UCH37 DUB inh = human UCH37 deubiquitinating enzyme inhibition; Q9Y5K5; purified proteasome/UCH37, Ub-AMC cleavage fluorescence; inhibition, % (no concentration beside the values); 330,000 tested, 0.33% active; AID 588478;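 active means mean of two replicates above 20%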;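 further: 0% = compound-free wells with enzyme and 100% = wells lacking proteasome; stock transfer was 100 nL into about 20 µL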
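System: Proteasome-associated human UCH37 deubiquitinase; Input: 0.15 nM proteasome in added enzyme buffer; Also added: Ub-AMC substrate from 1 µM stock; Incubation: 30 min compound-proteasome preincubation then 25 min substrate reaction, room temperature; Detection: fluorescence, ex 355 nm, em 460 nm; Read-out: % inhibition of Ub-AMC cleavage fluorescence; Benchmarks: no-proteasome and no-compound wells.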
Beta2AR agonist = agonists of human beta-2 adrenergic receptor inducing internalization; P07550; Am2.2-beta2AR cells, FAP receptor internalization, flow cytometry; reference of the scale not given here; response, % (concentration not given with the values); 340,000 tested, 0.43% active;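 active means response above a set limit, near 3 SD of response in nonfluorescent compounds, cut at about 42% in these data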;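 further: stock transfer was 100 nL into about 11 µL; a reference agonist was the positive control; negative values mostly stem from fluorescent compounds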
Calb FLC = C. albicans growth modulation with fluconazole. C. albicans CaCi-2 (fluconazole-resistant clinical isolate) + fluconazole, Alamar Blue growth, 48 h. growth inhibition, % (no concentration beside the values). 300,000 tested, 0.57% active. AID 1979;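 active means most replicates above 75%; inconclusive means exactly half above 75%; inactive means most below 75%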;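 further: all wells also contain fluconazole at 8 µg/ml as a sub-toxic cotreatment; 0% = median of DMSO wells and 100% = median of geldanamycin control wells; wells of about 8 µL received 7.5 nL stock; the first replicate is given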
T cruzi repl = blocks replication of Trypanosoma cruzi | T. cruzi beta-gal in NIH3T3, luminescence, 90 h | AID 1885 | inhibition, % (test concentration not listed) | 300,000 tested, 1.4% active;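 active means mean inhibition across valid replicates above about 55%, limit read from the data; inconclusive means mean below that limit but half or more replicates reach it; inactive means mean below it, under half of replicates reach it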;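 further: signal also drops with host cell toxicity which is not excluded here; 0% = plate median of DMSO wells and 100% = zero luminescence signal; higher percent means less beta-gal luminescence so fewer parasites; stock transfer was 50 nL into about 50 µL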
An asterisk follows results filed as active; ? = inconclusive; . = no result given.

SMILES	RanGTP-Imp inh	A1 inh	LANA-H2B inh	Beta apoptosis	UCH37 DUB inh	Beta2AR agonist	Calb FLC	T cruzi repl
COc1ccc(C(=O)Nc2cc(OC)nc(OC)n2)cc1	1.1	-19	-0.1	5	-0.2	-1	-8	-2
COc1ccc(C(=O)c2ccc(OC)c(N)c2)cc1N	-1.5	-0.8	-0.7	11	6.4	-3	-5	-66
CC(=C/c1ccccc1)/C=N/Nc1nc(N2CCCCC2)nc(N2CCCCC2)n1	0.5	0.4	2.3	11	.	23	1	28
CCOC(=O)N1CCN(S(=O)(=O)N2CCCC(C(=O)NCCCN3CCCCC3)C2)CC1 (configuration not stated)	3.3	0.0	-0.7	-6	-0.7	-6	-4	-7
CC(C)N(C)CCOC(=O)c1ccc2c(c1)OCCO2	-0.6	0.6	-1.1	-1	4.5	5	-3	-5
O=C1CCCc2c1cc(C(=O)O)c(=O)n2-c1ccccc1	0.8	-0.1	5.6	-3	2.9	1	-5	-21
CC(SC(=S)N1CCCC1)C(=O)O (configuration not stated)	2.8	-0.8	-4.3	-4	2.9	5	-24	-19
CCOC(=O)N1CCN(c2cc(C)nc3nc(C)nn23)CC1	1.2	0.9	-2.6	0	5.6	-3	3	-6
Cc1nn(-c2nc3ccccc3[nH]2)c(N)c1-c1ccc(Cl)cc1	-3.3	-0.3	6.7	23	1.9	-2	32	.
COc1cc(CNc2nc(C)c([N+](=O)[O-])c(C)c2C#N)cc(OC)c1	-0.7	0.3	0.3	6	3.5	2	5	11

(next part)
SMILES	RanGTP-Imp inh	A1 inh	LANA-H2B inh	Beta apoptosis	UCH37 DUB inh	Beta2AR agonist	Calb FLC	T cruzi repl
CN(C)CCCNC1=CC(=O)OC12CCCCC2	?	-0.2	2.1	-1	1.4	-6	-5	19
CC(=O)Nc1ccc(/C(C)=N\NC(=O)c2ccc(-c3ccccc3)cc2)cc1	.	0.7	-3.8	23	.	.	-31	-10
Clc1ccc(-c2cn3cccnc3n2)cc1Cl	2.5	0.4	-0.5	-4	-242	-8	5	2
CN(C)c1nc(N)nc(/C(C#N)=C/C2CC3C=CC2C3)n1 (configuration not stated)	1.1	0.1	-0.7	7	3.1	9	-4	-11
Cc1cc(NC(=O)c2cccc(N3C(=O)CCC3=O)c2)no1	-3.4	-0.3	2.6	1	4.8	-4	1	3
O=C(NC1CCCC1)C(c1ccccn1)N(C(=O)c1csnn1)c1ccccc1F (configuration not stated)	-8.5	0.2	-3.4	-2	4.5	-1	-10	-6
CC(C)(C)NC(=O)CSc1nc(-c2ccc(F)cc2)cs1	-4.3	0.4	4.8	-2	0.6	-1	-16	4
CC(C)c1ccc(OCC(=O)N(c2ccccn2)C2CCCCC2)cc1	1.8	0.0	-0.6	-2	3.3	-7	4	15
COC(=O)CN=Cc1c(O)n(-c2ccc(Cl)cn2)c(=O)c2ccccc12	-3.4	0.6	-1.7	-4	8.4	-2	2	-14
Cc1ccccc1OCC(=O)N/N=C/c1c(C)nn(-c2ccccc2)c1Cl	-1.9	-0.8	0.7	0	.	5	3	27

Some of these compounds in order of their number in UCH37 DUB inh, high to low:
SMILES | UCH37 DUB inh
COC(=O)CN=Cc1c(O)n(-c2ccc(Cl)cn2)c(=O)c2ccccc12 | 8.4
O=C(NC1CCCC1)C(c1ccccn1)N(C(=O)c1csnn1)c1ccccc1F (configuration not stated) | 4.5
CN(C)c1nc(N)nc(/C(C#N)=C/C2CC3C=CC2C3)n1 (configuration not stated) | 3.1

Next section:
SMILES	RanGTP-Imp inh	A1 inh	LANA-H2B inh	Beta apoptosis	UCH37 DUB inh	Beta2AR agonist	Calb FLC	T cruzi repl
CCOC(=O)C1=C(N)Oc2cc(O)ccc2C1c1cccc(Cl)c1 (configuration not stated)	3.4	-0.4	-3.8	-3	3.9	14	-7	-1
CCOc1ccccc1C1CC(c2cccs2)=NN1S(C)(=O)=O (configuration not stated)	2.4	-0.8	-6.5	-4	-0.4	-18	?	-19
O=C(NCCC1=CCCCC1)C1CCN(c2nnc(-n3cccc3)s2)CC1	-5.4	-0.4	3.4	0	3.8	-19	3	-1
Cc1cc(O)ccc1Nc1nc(-c2cccnc2)cs1	0.7	-2.3	-2.1	.	6.8	-7	-7	16
Cc1cc(C(=O)NNC(=O)C(C)NS(=O)(=O)c2ccccc2F)c(C)o1 (configuration not stated)	.	1.1	-0.8	-10	0.6	-2	.	.
COc1cc2sc(C)nc2cc1C	4.0	-0.1	3.5	-9	1.8	2	9	-8
O=c1[nH]c(SCc2ccccc2)nc2c1sc1ccccc12	1.2	0.1	-8.0	2	-1.1	-1	24	4
Cc1csc(=S)n1-c1ccccc1	4.0	0.3	1.7	-4	-0.8	9	-5	-12
CCc1ccc(-c2nc(C(N)=O)c3[nH]c(=O)n(-c4ccccc4OC)c3n2)cc1	?	0.1	-2.3	15	-0.6	0	5	-21
COc1ccc2cc(C#N)c(Nc3cccc(F)c3)nc2c1	-1.2	0.1	-9.9	2	.	-5	31	-4

New compounds follow
SMILES	RanGTP-Imp inh	A1 inh	LANA-H2B inh	Beta apoptosis	UCH37 DUB inh	Beta2AR agonist	Calb FLC	T cruzi repl
O=C(O/N=C(\c1ccccc1)c1ccccn1)c1ccc(Cl)c(Cl)c1	-2.1	0.6	-15	-4	.	1	-9	-6
O=C(NCC1CCCO1)c1cccc(S(=O)(=O)Nc2ccc(F)cc2)c1 (configuration not stated)	.	0.4	63*	-4	-3.0	-2	.	.
O=c1c(Cl)c(NCCO)ncn1-c1ccccc1	-0.4	-0.4	-2.0	.	4.7	8	-4	-24
CCC(C)(C)NC(=O)/C=C/c1cnc2ccccc2n1	3.8	-0.4	-2.7	-8	5.8	-8	13	3
CN(C(=O)COC(=O)CNC(=O)c1ccccc1Cl)c1ccccc1	-2.0	-0.8	4.2	-6	3.3	-2	-4	-14
CC(OC(=O)c1cc[n+]([O-])cc1)C(=O)Nc1ccc(Cl)cn1 (configuration not stated)	2.9	0.3	-7.1	-2	4.6	-9	1	-12
NS(=O)(=O)c1ccc(CNc2ncnc3sccc23)cc1	11	1.0	0.3	-1	-3.5	-5	4	2
Cc1ccc(C(=O)Nc2ccccc2N2CCCCC2)cc1	5.7	0.6	-1.1	.	2.7	9	-9	7
COc1ccccc1C(=O)N(Cc1nc(-c2ccc(Cl)cc2)no1)C(C)C	-0.1	2.4	2.6	-1	5.2	10	9	25
Cc1nn(CC(=O)NC2CCS(=O)(=O)C2)c(C)c1[N+](=O)[O-] (configuration not stated)	.	-0.8	-3.1	-5	6.0	-10	.	.

One compound at a time, from the list above. Values in the order: RanGTP-Imp inh, A1 inh, LANA-H2B inh, Beta apoptosis, UCH37 DUB inh, Beta2AR agonist, Calb FLC, T cruzi repl
Profile of Cc1csc(=S)n1-c1ccccc1 = 4.0, 0.3, 1.7, -4, -0.8, 9, -5, -12
Profile of CCOc1ccccc1C1CC(c2cccs2)=NN1S(C)(=O)=O (configuration not stated) = 2.4, -0.8, -6.5, -4, -0.4, -18, ?, -19

Remaining list, next part
SMILES	RanGTP-Imp inh	A1 inh	LANA-H2B inh	Beta apoptosis	UCH37 DUB inh	Beta2AR agonist	Calb FLC	T cruzi repl
CCN1/C(=C2/SC(=S)N(NC(C)=O)C2=O)Sc2ccccc21	-74	-3.7	1.4	4	2.0	4	18	5
Cc1ccc2c(CN3C(=O)NC4(CCCCC4)C3=O)cc(=O)oc2c1C	-4.1	0.0	0.9	1	-2.0	4	-19	33
COc1ccc(-c2[nH]ncc2CN2CCCOc3c(cccc3OC)C2)c(OC)c1	0.8	-0.3	0.1	-3	2.3	-6	-13	2
Cc1nc2sc(C(c3ccc(F)cc3)N3CCN(C(=O)c4ccco4)CC3)c(O)n2n1 (configuration not stated)	-1.9	0.8	0.2	-13	1.8	-9	1	-12
O=C(NCCNC(=O)c1ccccc1)c1ccccc1	?	0.2	2.3	-4	-1.5	-5	-13	6
COc1ccc(/C=C2/C(=O)N=C(N)N2C)cc1OC	-4.6	0.4	6.1	-3	2.7	-4	-4	-13
CC(C)c1nnc(NC(=O)CCC(=O)NC2CCCCCC2)s1	0.5	2.1	-6.0	0	0.2	1	18	-5
Cc1c(NC(=O)C(C)Oc2cccc(Cl)c2)c(=O)n(-c2ccccc2)n1C (configuration not stated)	-0.8	0.0	.	-5	1.6	2	-6	-6
Cc1cccc(C)c1NC(=O)[C@@]1(CC(=O)O)CC(/C=C/c2ccccc2)=NO1	6.9	-0.7	-3.6	1	4.0	2	1	-5
CCCn1nc2cc(C(=O)NCc3ccccc3)ccc2c1OCC	-1.5	-0.2	3.4	-9	-59	-2	-4	1

(cont.)
SMILES	RanGTP-Imp inh	A1 inh	LANA-H2B inh	Beta apoptosis	UCH37 DUB inh	Beta2AR agonist	Calb FLC	T cruzi repl
O=C(Nc1ccccn1)c1ccc(S(=O)(=O)N2CCCC2)cc1	-1.3	-1.5	1.1	0	3.8	-5	-2	-6
COC(=O)c1cc(OC)c(OC)cc1NCC(=O)Nc1ccc(OC)c(OC)c1	-3.7	-0.4	-4.0	-1	-7.0	4	-13	5
c1ccc(OCc2nc(-c3ccncc3)no2)cc1	0.7	-0.9	-0.1	-8	0.5	3	2	-1
Cc1cc(C)nc(NS(=O)(=O)c2ccccc2)n1	-3.0	0.9	-0.6	4	1.1	3	-8	12
Cc1cccn2c(=O)c3cc(S(=O)(=O)c4ccccc4)c(=N)n(Cc4ccc(F)cc4)c3nc12	-1.9	0.4	2.1	5	-1.4	0	2	1
O=c1c2sccc2nc(SCc2cc(=O)n3cc(Cl)ccc3n2)n1-c1ccc(F)cc1	-0.4	0.4	0.7	3	-16	-15	-15	4
CCc1ccc(OCc2n[nH]c(=S)n2Cc2ccccc2)cc1	2.7	-0.4	-3.4	6	0.8	3	-12	17
CCc1nnc(NC(=O)CCC(=O)N2CCN(Cc3ccc(C)cc3C)CC2)s1	-0.1	-0.5	-2.1	.	4.5	-10	0	?
CSCCC(NC(N)=O)C(=O)Nc1cccc(C#N)c1 (configuration not stated)	1.5	0.4	2.7	-4	0.7	0	16	-3
CCOc1ccccc1C1NC(=O)c2ccccc2O1 (configuration not stated)	-1.5	0.0	-1.5	-7	2.6	-4	-3	-8
